CSC inhib: cancer stem cell viability inhibitors, primary screen, luminescence. cancer stem cell-like cells viability. AID 2717, 2010. hit rate 1.1% among 300,000. inhibition, % at 7.5 µM;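 active = mean at 75% or more and at least half the replicates too; inconclusive = mean and replicates disagree; tested in HMLE shEcad cells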;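 note: 0% = median of negative and 100% = median of positive control wells; the first replicate is given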
HIV Env fusion: inhibitors of HIV-1 Env-driven cell-cell fusion, primary screen, HeLa-JRFL effector, CEM21 target cells, luciferase | inhibition, % at 12.3 µM | hit rate 1.1% among 360,000;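 active = mean replicate inhibition score of at least 50 and every replicate individually at or above 50; inconclusive = only one of the two criteria met; inactive = mean below 50 and not all replicates reaching 50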;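 note: 0% = plate neutral controls and 100% = maraviroc near 300 nM; one replicate is shown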
MT1-MMP act inh: blockers of MT1-MMP proenzyme processing, primary screen, HT1080 RFP-PRO-GFP cells, GFP/RFP fluorescence; GFP/RFP ratio change, % at 20 µM; AID 651647, 2012; Matrix metalloproteinase-14 (Homo sapiens), P50281; hit rate 0.061% among 360,000; GFP/RFP ratio fluorescence, overnight; percent of plate control window, DMSO zero;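 active = GFP/RFP ratio change of at least 30% with cell ATP level not reduced by more than half and red fluorescence within 50% of control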; note: strong numbers were not always called active
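Assay system: HT1080 cells carrying an RFP-PRO-GFP reporter | Dosing: Single dose of 20 µM compound, 1% DMSO final | Incubation: Cells overnight before dosing, compound overnight, 37 °C, 5% CO2 | Evaluation: GFP/RFP fluorescence ratio | Control set: DMSO and RFP-L50D-GFP cell wells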
PABP FP inh: PABP poly(A) RNA binding inhibitors, primary screen, biochemical, fluorescence polarization, uHTS; hit rate 1% among 290,000; Polyadenylate-binding protein 1 (Homo sapiens), P11940; AID 2014, 2009; inhibition, % at 35 µM;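 active = 50% or more with normal probe brightness, or confirmed in later tests; inconclusive = above 50% with abnormal brightness, or retests that disagree; inactive = below 50% or failed in later tests; about a fifth of its hits are not listed in these tables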;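 note: calls also rest on retests at 20 µM and on dose response follow-up; controls were probe without protein and protein plus probe with vehicle; some compounds called inactive have numbers as strong as hits; many hits fall short of the cut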
Rce1 inhib: yeast Rce1p protease inhibitors, primary screen, biochemical, fluorescence, cell-free homogeneous. CAAX prenyl protease 2 (Saccharomyces cerevisiae (strain ATCC 204508 / S288c)), Q03530. yeast membranes, quenched prenylated peptide cleavage fluorescence. calls only. hit rate 0.27% among 290,000;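 active = fall in fluorescence gain of 50% or more versus controls, with final raw signal at or below 3038400; inconclusive = same 50% fall but final raw signal above 3038400; inactive = fall in fluorescence gain under 50%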;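 note: plate controls were neutral control wells for no effect and wells lacking membranes for full effect; tested at 10 µM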
Target sequence (Q03530 whole entry, looked up): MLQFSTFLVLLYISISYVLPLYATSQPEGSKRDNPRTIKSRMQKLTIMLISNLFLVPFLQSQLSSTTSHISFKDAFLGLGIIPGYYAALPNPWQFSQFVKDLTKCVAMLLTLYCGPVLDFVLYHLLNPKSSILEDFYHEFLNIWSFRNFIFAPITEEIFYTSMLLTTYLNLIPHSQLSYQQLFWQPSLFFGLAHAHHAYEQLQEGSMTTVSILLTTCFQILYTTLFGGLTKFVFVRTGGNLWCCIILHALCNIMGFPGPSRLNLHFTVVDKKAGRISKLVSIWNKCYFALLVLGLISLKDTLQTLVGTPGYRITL
UUG fidelity: modulators of yeast start codon fidelity, primary screen, whole organism, S. cerevisiae, single point, plate reader; hit rate 0.13% among 350,000; AID 602363, 2012; activity score, % at 18.7 µM; S. cerevisiae UUG-firefly luciferase reporter, luminescence/redox ratio;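 active = replicate mean at a twofold rise or more, about +100% in these data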;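 note: firefly luciferase made from a UUG start codon reports start codon fidelity; reporter light over untreated wells divided by growth signal over untreated wells; some hits fall short of that in this replicate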
eIF4H FP inh: human eIF4H binding inhibitors, primary screen, translation initiation inhibitor project, biochemical, uHTS, fluorescence polarization; Eukaryotic translation initiation factor 4H (Homo sapiens), Q15056; eIF4H fluorescence polarization binding assay; inhibition, % at 35 µM; hit rate 0.94% among 290,000;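 active = 50% or more with normal probe brightness, or confirmed in later tests; inconclusive = above 50% with abnormal brightness, or retests that disagree; inactive = below 50% or failed in later tests; about a fifth of its hits are not listed in these tables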;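 note: calls also rest on retests at 20 µM and on dose response follow-up; 0% = protein and probe with vehicle and 100% = probe without protein; strong numbers were not always called active; many hits fall short of the cut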
MT1-MMP act inh RFP: further read-out of MT1-MMP act inh, marked with its call; RFP signal change, %; measured here: RFP expression control read;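 0 = vehicle wells; hits needed this value within 50% of zero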
* hit, by the source's call; i = inactive; u = inconclusive; x = not tested or not shown; & = joins results of further samples; [ ] = dose if it differs, or a comment.

#	Structure	CSC inhib	HIV Env fusion	MT1-MMP act inh	MT1-MMP act inh RFP	PABP FP inh	Rce1 inhib	UUG fidelity	eIF4H FP inh
1	CCOC(=O)CNC(=O)CSc1nc(-c2ccc(OC)cc2)ns1	-9	-2	4	3	-10	i	-17	-5
2	CCOCCc1nnc(NC(=O)Cc2ccc(Br)cc2)s1	0	x	-4	-2	1	i	-16	-14
3	C/C(=N\NC(=O)c1cccc(Br)c1)c1cccc(NC(=O)c2ccc(C)o2)c1	1	x	0	0	-3	i	-4	-3
4	O=C(O)CCCC(=O)N(Cc1ccccc1)Cc1ccccc1	8	-17	5	6	4	i	-13	-9
5	CN(CC(=O)Nc1cccc(F)c1)C(=O)c1cc([N+](=O)[O-])ccc1N1CCOCC1	x	-32	1	2	x	i	x	x
6	CC(C)Oc1ccc(C(=O)N2CCCc3ccccc32)cc1	-9	15	3	2	2	i	7	-4
7	COc1cc(C(CCN2CCCCC2)c2c(OC)cc(OC)c3c(C)cc(=O)oc23)cc(OC)c1OC (configuration not stated)	4	-29	3	6	-8	i	-21	0
8	C#CCN(C[C@H]1[C@H](OC(=O)NC2CC2)[C@H](OC(=O)NC2CC2)C[C@@H](C(=O)OC)[C@H]1C(=O)OC)S(=O)(=O)c1ccc(C)cc1	x	-38	0	3	x	x	2	x
9	Cc1c(CCCC(=O)O)sc(N)c1C(=O)c1cccc(C(F)(F)F)c1	x	-11	1	10	x	i	-1	x
10	O=c1[nH]c(=S)[nH]nc1Cc1ccccc1	x	-35	2	3	12	i	-27	1
11	CCN(Cc1nc(-c2cccc(C)c2)no1)C(=O)c1ccc2c(c1)OCO2	x	8	-2	-1	7	i	-7	1
12	Oc1ccc(Br)cc1CNc1ccccn1	8	2	4	1	-6	i	x	1
13	Cc1ccc(NC(=O)Nc2cc(C(F)(F)F)c[nH]c2=O)cc1	10	23	5	-2	2	i	-10	1
14	O=C(CCC(=O)N1CCN(S(=O)(=O)c2ccccc2Cl)CC1)c1ccccc1	x	3	2	-1	x	x	-16	x
15	O=C(Nc1ccccc1)C1=C(O)CC(c2ccc(Cl)cc2)N2CCN=C12 (configuration not stated)	-1	x	-2	-14	-4	i	x	1
16	CCN(CC)S(=O)(=O)c1cccc(C(=O)Nc2sc3c(c2C(N)=O)CCCC3)c1	1	3	1	7	11	i	-19	-2
17	COc1ccc(OC)c(C(=O)Cn2nnc3ccccc3c2=O)c1	2	-73	2	0	0	i	-25	2
18	CCN1CCc2nc3sc(C(=O)N4CCc5ccccc5C4)c(N)c3cc2C1	x	-2	-1	1	89*	i	5	98*
19	Cc1ccc(NC(=O)C2CCCN2S(=O)(=O)c2cccc3cccnc23)c(C)c1 (configuration not stated)	-9	-12	3	3	-4	i	0	-5
20	Cc1c(C(=O)N2CCc3ccccc3C2)oc2ccc(S(=O)(=O)N3CCCCCC3)cc12	32	28	-1	-9	9	i	x	-2
21	C=CCOC(=O)C1=C(C)NC2(O)c3ccccc3C(=O)C12O (configuration not stated)	-8	x	1	5	3	i	1	5
22	N#Cc1ccc(NC(=S)NC(=O)C2CCCCC2)cc1	-8	-13	-5	-5	x	x	-19	x
23	CC1(C)Cc2c(oc3ncn4ncnc4c23)CO1	-15	x	3	2	5	i	-25	-9
24	COc1ccc(N2CCN(CC(=O)c3ccc(Cl)cc3)CC2)cc1	-6	8	0	4	2	i	-22	1
25	O=C(c1ccco1)N1CCN(c2nc(C(F)(F)F)nc3c2nnn3Cc2ccccc2)CC1	6	67*	2	-20	-4	i	x	-2
26	COc1ccccc1C(=O)NNC(=O)C(=O)N1CCCCC1	9	-2	1	5	-2	x	-18	-12
27	CC1(C)CC(=O)N(CC(=O)O)c2ccccc2S1	-6	-29	-1	2	11	i	-5	-3
28	Cc1cc2nc(N3CCN(C(=O)c4ccco4)CC3)sc2cc1C	1	-90	3	-18	x	i	-6	x
29	Cc1cc(NC(=O)c2cccnc2)ccc1Br	-2	-32	2	2	8	i	-1	-4
30	COc1ccc(NC(=O)N(C)C[C@@H]2OCc3ccccc3-c3c(n(C)c4ccccc34)C(=O)N([C@H](C)CO)C[C@H]2C)c(OC)c1	x	-169	-4	-3	x	x	4	x

The results go on:
#	Structure	CSC inhib	HIV Env fusion	MT1-MMP act inh	MT1-MMP act inh RFP	PABP FP inh	Rce1 inhib	UUG fidelity	eIF4H FP inh
31	Cc1ccc(N2CCN(C(=S)c3ccc(-c4ccccc4[N+](=O)[O-])o3)CC2)cc1	-4	-12	2	9	22	i	-17	9
32	Cc1ccc(NC(=O)c2oc3ccc(Br)cc3c2C)cc1S(=O)(=O)N1CCOCC1	x	30	0	-3	x	x	-1	x
33	CCC1(C)NC(=O)N(CC(=O)N2CCN(c3cccc(Cl)c3)CC2)C1=O (configuration not stated)	3	7	1	1	x	x	2	x
34	COc1ccc(C(=O)Nc2ccc(Cl)cn2)cc1S(=O)(=O)N1CCCC1	-2	-4	1	-3	x	x	-15	x
35	Cn1c(NCc2ccccc2Cl)nc2ccccc21	-4	-131	-2	2	x	i	-14	x
36	COc1ccc(S(=O)(=O)NCc2ccc3c(c2)cc(C)n3C)cc1	3	-21	46	61	74*	i	-13	64*
37	CCOCCC(=O)Nc1ccc2c(c1)c(=O)n(C)n2C/C=C/c1ccccc1	x	-19	3	-5	x	x	2	x
38	CCCNC(=O)NC(=O)COC(=O)/C=C/c1cc(Br)ccc1F	0	16	0	1	3	i	x	-6
39	COCCNCc1ccccc1	-3	x	-2	2	-3	i	-18	-8
40	CC1CCCN(CCC(=O)Nc2ccc(F)c(F)c2)C1 (configuration not stated)	-14	-2	0	1	0	i	6	4
41	CSc1ccc(CN2CCC2(C)C(=O)NC2CCc3ccccc32)cc1 (configuration not stated)	x	8	6	-9	x	x	-4	x
42	CCOC(=O)Cn1c(=NC(=O)c2sc3ccccc3c2Cl)sc2cc(S(N)(=O)=O)ccc21	0	34	-2	3	-2	i	-13	9
43	O=C(Nc1ccc(Oc2cccnc2)nc1)c1ccc(C(F)(F)F)cc1	16	-4	3	-31	12	i	x	-2
44	CC(=O)N(CCC(c1ccccc1)c1ccco1)Cc1cccs1 (configuration not stated)	-16	6	-12	-10	0	i	12	2
45	CCCn1c(=O)c2[nH]c(-c3ccc(S(=O)(=O)O)cc3)nc2n(CCC)c1=O	5	12	2	-2	x	x	-12	x
46	CC(C)(C)OC(=O)N[C@@H](CC(=O)OCc1ccccc1)C(=O)O	-2	2	-2	2	22	i	x	-3
47	COc1ccc(CCN=C(N)NS(=O)(=O)c2ccc(C)c(C)c2)cc1OC	-12	13	6	0	6	i	-15	-2
48	CNc1snc(C)c1C(=O)OC(C)C(=O)c1ccc(F)cc1 (configuration not stated)	x	8	0	-16	x	x	-14	x
49	COc1ccc(CNc2cc(C)ccc2C)c(OC)c1OC	2	28	-7	-2	17	i	-11	-2
50	CCNc1nc(SCCOc2ccccc2)nc(N(C)C)n1	0	x	-10	-10	0	i	-15	-6
51	Cc1ccc(SCc2c(C(=O)N/N=C/c3ccco3)nnn2-c2nonc2N)cc1	x	10	-2	-1	x	x	-17	x
52	COc1ccc(OC)c(NC(=O)CSc2nncc(=O)n2N)c1	-9	4	4	1	6	i	-8	-8
53	COc1cc(/C=N/NC(N)=O)c(Br)cc1OCC(=O)Nc1ccccc1C	7	x	2	-3	-7	i	3	7
54	O=C(N/N=C/c1ccco1)c1ccn[nH]1	-7	-13	3	-2	6	i	x	-3
55	COc1cccc(N2CCN(C(=S)Nc3ccc(F)cc3)CC2)c1	-20	2	2	-1	-5	i	-13	-3
56	Cc1ccccc1-n1ncc2c1CC(C)(C)CC2NC(=O)CCC(F)(F)F (configuration not stated)	-7	-1	1	-2	9	i	-11	1
57	CCC(C)NC(=O)C1(C)CCC(=O)N1Cc1ccccc1OC (configuration not stated)	1	12	-3	-11	2	i	0	-2
58	O=c1[nH]c2cc3c(cc2cc1C(c1nnnn1C1CCCCC1)N1CCSCC1)OCCO3 (configuration not stated)	-11	13	-5	0	5	x	x	u
59	O=C(CN(CC1CCCO1)C(=O)CNS(=O)(=O)c1ccc(F)cc1)NC1CCCC1 (configuration not stated)	-2	-21	-1	1	12	i	-8	-2
60	CC(C)(C)OC(=O)NCCNC(=O)c1cccs1	-16	-6	-2	0	-8	i	-15	-4

Next section:
#	Structure	CSC inhib	HIV Env fusion	MT1-MMP act inh	MT1-MMP act inh RFP	PABP FP inh	Rce1 inhib	UUG fidelity	eIF4H FP inh
61	O=C1Nc2ccc(Cl)cc2C12Nc1ccccc1-c1nnc(SCc3ccccc3F)nc1O2 (configuration not stated)	-1	x	1	0	-20	i	-13	7
62	COc1cc(NCc2ccccc2O)c2ncccc2c1	x	-14	3	3	5	i	-28	-6
63	COc1ccc(-n2cc(CNC3CCC(O)CC3)c(-c3cccc(F)c3)n2)cc1 (configuration not stated)	-7	7	6	-1	4	i	-5	1
64	COc1ccc(CNS(=O)(=O)c2ccc(C)cc2)cc1	-21	12	4	0	x	i	-22	x
65	Cc1ccc(S(=O)(=O)Nc2cc(=O)[nH]c(SCC(=O)Nc3ccccc3Cl)n2)cc1	x	9	-1	-13	-4	x	x	-3
66	O=C(CSc1nc(Nc2ccccc2)nc(N2CCOCC2)n1)NC1CCCCC1	-4	7	2	-10	2	i	-18	-6
67	C=C(C)CN(CC)C(=O)CCc1nnc(CCCc2ccccc2)o1	-9	-50	-2	-3	2	i	x	0
68	O=C(NCc1ccc2c(c1)OCO2)C(C(=O)c1ccccc1)n1cc(Cl)ccc1=O (configuration not stated)	-4	x	2	6	3	i	x	-1
69	CC1=C(C(=O)Nc2ccccc2C(F)(F)F)C(c2sccc2C)NC(=S)N1 (configuration not stated)	-3	15	-6	-3	24	i	x	6
70	Cc1ccc(Nc2nnc(SCC(=O)NC3CCCc4ccccc43)s2)cc1 (configuration not stated)	8	-42	4	-2	2	i	x	-18
71	Cc1cc(C)n(CC(=O)NC2CCCN(Cc3ccc(Cl)cc3)C2)n1 (configuration not stated)	16	-6	3	10	7	i	-11	-10
72	CC(C)CC(=O)NCCc1ccncc1	3	-41	-2	1	4	i	-19	-10
73	Cc1ccc(NC(=O)c2ccc(OC(=O)c3cc4ccccc4o3)cc2)cc1	-16	-181	4	2	-2	i	-16	-1
74	CC(C)(CO)NS(=O)(=O)c1ccc2c(c1)Cc1cc(S(=O)(=O)NC(C)(C)CO)ccc1-2	5	9	0	-4	8	i	4	-4
75	COc1ccc(/C=N/NC(=O)c2cccc(OC(F)(F)C(F)F)c2)c(OC)c1OC	x	29	3	1	3	i	-12	2
76	O=C(c1cccc(N2CCCC2=O)c1)N1CCOCC1	-7	30	-8	0	5	i	-5	8
77	O=C(C1=C[C@@H](c2csc3ccccc23)C[C@@H](OCc2ccc(CO)cc2)O1)N1CCOCC1	-6	-7[16.7 µM]	-5	-3	-1	i	-3&-14	9
78	COc1ccc(C(=O)NC2CC2)cc1OC1CCN(Cc2ccc(F)cc2F)CC1	-3	-2	1	5	-1	i	-9	2
